Screens as filed in PubChem.
Cruzain noTriton: inhibitors of Trypanosoma cruzi cruzain without detergent; hit rate 2.3% among 200,000; Potency, µM, inactives show max response, negative = inhibition, hits mostly inhibitors; P25779; purified cruzain, Z-FR-AMC fluorescence, no detergent;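 note: plate controls were enzyme without inhibitor for no effect and buffer without enzyme for full effect; nearly all actives have a fitted effect of over 40% in size; top concentration of the series not given in the record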
Target sequence (P25779 123-467 limits assumed): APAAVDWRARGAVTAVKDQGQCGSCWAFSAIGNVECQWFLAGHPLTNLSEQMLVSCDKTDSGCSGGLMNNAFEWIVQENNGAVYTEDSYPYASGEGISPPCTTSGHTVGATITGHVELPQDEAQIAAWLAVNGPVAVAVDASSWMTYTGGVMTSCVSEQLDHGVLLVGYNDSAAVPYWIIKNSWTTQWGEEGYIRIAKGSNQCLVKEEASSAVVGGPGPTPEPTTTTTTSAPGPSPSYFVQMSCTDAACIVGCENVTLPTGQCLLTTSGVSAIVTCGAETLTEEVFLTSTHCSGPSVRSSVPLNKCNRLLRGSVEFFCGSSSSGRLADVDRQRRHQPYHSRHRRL
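Detergent-free condition (0.00005% Triton X-100) in acetate buffer pH 5.5 with DTT. 1.5 nM enzyme and compound were pre-mixed 15 min, then 2 uM Z-FR-AMC substrate added; reaction progress from fluorescence change between first and third reads (60 s).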
LASV entry inh: Lassa virus entry inhibition; hit rate 1.2% among 300,000; Lassa virus pseudotype entry inhibition, cell reporter; control for the full effect not named in the record; Potency, µM (highest dose often 37.9 µM), for the others: at the highest dose activity change, negative = inhibition, hits mostly inhibitors; active means well fitted inhibition curve with a large enough effect; inconclusive means small, poorly fitted or top-dose-only effect, or effect the other way; inactive means flat fitted curve, though single readings scatter; tested in HEK293 cells; note: % is set by controls: 0 for no effect and ±100 for the full control effect; nearly all actives have a fitted effect of over 50% in size; luciferase read-out
MARV entry inh: blocks Marburg virus binding to or entry into cells | Marburg virus pseudotyped entry inhibition, cell reporter; control for the full effect not named in the record; about a third of the inactives were read at about 46 µM | Potency, µM (titrated, usually from 37.8 µM), for the others: top-dose activity change, negative = inhibition, most hits filed as inhibitors | hit rate 1.8% among 300,000 | AID 540276; active = well fitted inhibition curve with a large enough effect; inconclusive = small, poorly fitted or top-dose-only effect, or effect the other way; inactive = flat fitted curve, though single readings scatter; tested in HEK293 cells; about a fifth of its hits are not listed in these tables; note: % is set by controls: 0 for no effect and ±100 for the full control effect; luciferase read-out
SARS PLP yeast: blocks SARS-CoV papain-like protease in a yeast assay. S. cerevisiae expressing SARS-CoV PLpro, growth rescue; control for the full effect not named in the record. Potency, µM (highest dose often 32.9 µM), for inactives: at the top dose activity, positive = growth rescue. hit rate 0.19% among 330,000; active means well fitted rising curve with a large enough effect; inconclusive means small, poorly fitted or top-dose-only effect; inactive means no such curve, though single readings can be large or run the other way; note: 0% is about no effect; nearly all actives have a fitted effect of over 55% in size; growth read by luminescence after 48 h
StopGo reporter: lowers the luciferase signal of an FMDV 2A StopGo reporter; hit rate 1.2% among 410,000; Potency, µM (titrated, usually from 57.9 µM), without a hit: at the highest dose signal change, negative = less light; human cells with a luciferase reporter of 2A StopGo recoding; control for the full effect not named in the record; AID 1159524; active = well fitted falling curve with a large enough effect; inconclusive = small, poorly fitted or top-dose-only effect; inactive = no such curve, though single readings can be large or run the other way; tested in HEK293T cells; note: % is set by controls: 0 for no effect and ±100 for the full control effect; nearly all actives have a fitted effect of over 45% in size; luciferase light after 4 h
NS1 inh: influenza NS1 inhibition; S. cerevisiae slowed by influenza A NS1, growth recovery by OD600; AID 2326; Potency, µM (top dose mostly 46.1 µM), for inactives: top-dose activity, positive = more growth; hit rate 0.4% among 270,000; active means well fitted rising curve with a large enough effect; inconclusive means small, poorly fitted or top-dose-only effect; inactive means no such curve, though single readings can be large or run the other way; note: nearly all actives have a fitted effect of over 50% in size
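Growth recovery, yeast-based: influenza A NS1 expressed in S. cerevisiae causes slow growth, and suppressors are detected by OD600. The parent strain without NS1 is used as positive control.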
RE007 growth inh: less growth of the S. pombe RE007 Vpr strain; S. pombe RE007 Vpr strain, BacTiter-Glo ATP luminescence, 24 h; control for the full effect not named in the record; Potency, µM (titrated, usually from 92.2 µM), without a hit: at the top dose activity change, negative = less growth; hit rate 0.21% among 360,000; AID 651644; active = well fitted falling curve with a large enough effect; inconclusive = small, poorly fitted or top-dose-only effect; inactive = no such curve, though single readings can be large or run the other way;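 note: % is set by controls: 0 for no effect and ±100 for the full control effect; nearly all actives have a fitted effect of over 50% in size; the assay follows cell death caused by Vpr and the record does not say whether a fall means rescue or toxicity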
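Fission yeast RE007 carrying one integrated HIV-1 vpr copy, seeded at OD 0.01 in PMG+AL medium with 23 nL pinned compound. Grown 24 h at 30 degrees; viability read by BacTiter-Glo luminescence after 5 min.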
Cruzain Triton: inhibitors of Trypanosoma cruzi cruzain with detergent; purified cruzain, Z-FR-AMC fluorescence, 0.01% Triton; Potency, µM, without a hit: max response, negative = inhibition, actives largely listed as inhibitors; hit rate 0.43% among 200,000; AID 1478;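 note: plate controls were neutral wells for no effect and buffer without enzyme for full effect; nearly all actives have a fitted effect of over 40% in size; top concentration of the series not given in the record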
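Enzyme 1.5 nM, Z-FR-AMC 2 uM, NaOAc 100 mM pH 5.5, DTT 5 mM, Triton X-100 0.01%; 15 min RT compound preincubation; kinetic ex360/em450, 60 s delta.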
An asterisk follows results filed as active; u = inconclusive; x = no result given; & = joins results of further samples; [ ] = remark or other dose. Unless noted, calls come from the whole dose curve; as a rule, active = well fitted curve in the direction sought with a large enough effect; inconclusive = small, poorly fitted or top-dose-only effect, or another doubt; inactive = no such curve, though single readings can be large; an effect the other way counts as inactive or inconclusive. Potency is the fitted concentration of half-maximal effect.

SMILES	Cruzain noTriton	LASV entry inh	MARV entry inh	SARS PLP yeast	StopGo reporter	NS1 inh	RE007 growth inh	Cruzain Triton
Cc1cc(C)n(/N=C/c2c[nH]c3ccccc23)c(=O)c1C#N	-7%	-28%	-2%	9%	x	0%	-25%	2.5%
O=C(NCc1ccccn1)Nc1ccccc1C(F)(F)F	x	x	x	2%	-4%	-6%	8%	x
COc1ccc(Cl)cc1NC(=S)N1CCCC1	x	3%	12%[46.1 µM]	15%	10%	2%	-23%	x
CC(=O)c1ccc(N2CCN(C(=O)c3cc(S(=O)(=O)N4CCCCCC4)cn3C)CC2)cc1	u	-2%[46.1 µM]	x	x	-21%	x	x	-8.8%
COc1ccc2[nH]c(C)c(C(=O)CN3CCN(C/C=C/c4ccccc4)CC3)c2c1	5%	u	u	-1%	-28%	4%	1%	-1.8%
CCn1c(SCC(=O)OC)nnc1-c1ccccc1	x	u	21%[46.1 µM]	0%	-16%	2%	6%	x
COc1ccc(C(C)NC(=O)C23CC4CC(CC(C4)C2)C3)cc1OC (configuration not stated)	x	x	x	-1%	-28%	-5%	12%	x
Cc1ccc(S(=O)(=O)N2CCCC2C(=O)n2nc(C)cc2C)cc1 (configuration not stated)	4%	27%	9%	1%	-3%	-8%	5%	-3.8%
CCOCCOC(=O)c1ccc2c(c1)N(Cc1ccccc1C#N)C(=O)c1ccccc1S2(=O)=O	-1%	u	x	x	-10%	x	x	-2.6%
O=C(O)c1cccnc1SCc1cccc(Cl)c1	-8%	4%	-9%&-9%[46.1 µM]	-3%	27%&20%	x	-9%	1.1%
CN(Cc1nc(-c2ccc(C(F)(F)F)cc2)no1)C1CCOCC1	x	3%[46.1 µM]	1%[46.1 µM]	1%	10%	-3%	-4%	x
O=C(Nc1cnn(Cc2ccc(F)cc2)c1)C(c1ccccc1)c1ccccc1	13%	u	u	-4%	u	17%	-13%	-6.0%
O=C(Cn1nc(C(=O)O)c2ccccc2c1=O)NCc1ccco1	x	1%	19%[46.1 µM]	0%	-20%	x	13%	x
O=C(Cc1ccc(S(=O)(=O)N2CCOCC2)s1)N(Cc1ccccc1)c1ccccc1	x	-14%	-19%	-1%	u	x	-8%	x
COc1ccc(Cl)cc1NC(=O)COC(=O)CCNS(=O)(=O)c1cccs1	x	16%	u	4%	-6%	x	2%	x
COc1ccc(N(CC(=O)N2CCN(c3cc(C)ccc3C)CC2)S(=O)(=O)c2c(C)noc2C)cc1	-4%	2%[46.1 µM]	22%&22%[46.1 µM]	-3%	u	1%	-9%	-1.8%
COc1ccc(NC(=S)Nc2ccc(S(=O)(=O)N3CCOCC3)cc2)c(OC)c1	-3%	6%	u	6%	-4%	10%	x	-1.8%
O=C(/C=C/c1ccco1)N1CCN(c2ccccc2)CC1	12%	10%	12%	-4%	15%	-5%	2%	-5.0%
O=C(NN=C1CCCC1)c1cc(-c2ccc(F)cc2)nc2ccccc12	x	u	u	-2%	-12%	x	10%	x
N#Cc1nc(-c2ccc(OCc3ccccc3)cc2)oc1NCCCN1CCOCC1	2%	-12%	-24%	-6%	40µM*	-96%	-5%	-6.0%
CCOc1cc(-c2noc(CCC(=O)N3CCOCC3)n2)ccc1OC	-5%	-15%	7%	5%	-12%	-1%	-25%	-3.0%
COc1ccccc1NC(=O)Cn1c(=O)n(Cc2nc(-c3ccccc3)no2)c(=O)c2ccccc21	-2%	9%[46.1 µM]	x	x	-26%	x	x	-4.7%
CCC(=O)c1cn(CC(=O)Nc2cccc(OC)c2)c2ccccc12	x	-2%[46.1 µM]	u	1%	-6%	1%	13%	x
COc1ccc(CNc2ncnc(N)n2)cc1	6%	0%	-1%	3%	-10%	4%	0%	3.1%
Cc1cccc(-c2nc(CN3C(=O)CN=C(c4ccccc4)c4ccccc43)c(C)o2)c1	11%	u	u	x	u	x	x	-10%

Taken from above.
Entry for COc1ccc(C(C)NC(=O)C23CC4CC(CC(C4)C2)C3)cc1OC (configuration not stated) in NS1 inh: -5%
Entry for N#Cc1nc(-c2ccc(OCc3ccccc3)cc2)oc1NCCCN1CCOCC1 in RE007 growth inh: -5%

Some of the entries so far, in CSV form:
canonical_smiles,Cruzain noTriton,LASV entry inh,MARV entry inh,SARS PLP yeast,StopGo reporter,NS1 inh,RE007 growth inh,Cruzain Triton
O=C(/C=C/c1ccco1)N1CCN(c2ccccc2)CC1,12%,10%,12%,-4%,15%,-5%,2%,-5.0%
O=C(Cn1nc(C(=O)O)c2ccccc2c1=O)NCc1ccco1,x,1%,19%[46.1 µM],0%,-20%,x,13%,x
CCC(=O)c1cn(CC(=O)Nc2cccc(OC)c2)c2ccccc12,x,-2%[46.1 µM],u,1%,-6%,1%,13%,x

Further entries
SMILES	Cruzain noTriton	LASV entry inh	MARV entry inh	SARS PLP yeast	StopGo reporter	NS1 inh	RE007 growth inh	Cruzain Triton
CSc1nc2c(cc1C#N)CCC2	x	7%	3%	2%	-12%	1%	-13%	x
CC(C)c1nc(SCC(=O)Nc2ccc3c(c2)OCCO3)c2c(=O)n(C)c(=O)n(C)c2n1	-3%	x	x	-3%	-19%	-42%	-4%	-4.1%
O=C(Cc1ccccc1Cl)NCCCn1ccnc1	5%	u	11%	-18%	-9%	-6%	-7%	-1.1%
CCOC(=O)N1CCN(C(=O)c2cnsn2)CC1	-1%	-7%	-2%[46.1 µM]	-2%	12%	3%	-6%	3.0%
C=CCc1cc(Cl)ccc1OCCNCCN1CCOCC1	x	21%	-19%[46.1 µM]	1%	-17%	0%	-14%	x
Cc1nn(C(C)C(=O)NCc2ccccc2Cl)c(=O)c2c1sc1ccccc12 (configuration not stated)	-3%	18%	u	-1%	-9%	-15%	-12%	-1.2%
CCOC(=O)c1c(-c2cccc3ccccc23)csc1NC(=O)C1C2CCC(O2)C1C(=O)O (configuration not stated)	12%	1%	u	-1%	-18%	24%	2%	-6.4%
CCO[C@@H]1OC(C(=O)N2CCOCC2)=C[C@H](C2CC2)[C@H]1CCCO	x	x	x	0%	-15%	1%	-5%	x
O=C(CN1C(=O)S/C(=C\C=C\c2ccccc2)C1=O)Nc1ccccc1C(=O)O	x	x	x	1%	u	2%	6%	x
C/C(=N/NC(=O)c1cc(C)[nH]n1)c1ccco1	x	u	u	-1%	-4%	0%	9%	x
C[C@H](C(O)c1ccccc1)N(C)C(=O)CN (some centres not stated)	x	x	x	6%	-24%	12%	-2%	x
c1ccc(CSc2ncnc3ccccc23)cc1	x	-1%	u	-1%	7%	-41%	0%	x
Cc1ccc(C(=O)N/C(=C\c2ccc(-c3ccccc3[N+](=O)[O-])o2)C(=O)NCCCN(C)C)cc1	x	-3%[46.1 µM]	u	2%	u	-5%	-7%	x
COC(=O)CCc1nc2c(C#N)c(-c3ccc(Cl)cc3)ccn2n1	x	3%	-2%[46.1 µM]	-3%	6%	x	-1%	x
CC(=O)Nc1ccc(NC(=O)Cn2c(=O)n(-c3ccc(C)cc3)c(=O)c3oc4ccccc4c32)cc1	x	u	u	0%	1%	x	-1%	x
CCc1ccc2c(c1)c(=O)c(C(=O)c1ccc(C)cc1)cn2CC(=O)Nc1ccc2c(c1)OCCO2	-1%	0%[46.1 µM]	-23%[46.1 µM]	x	-12%	x	x	-2.4%
CC1(C)CC(=O)C=C(Nc2ccccc2N)C1	x	0%	-5%	1%	-4%	2%	6%	x
CCCc1ccc(OC(=O)c2ccc(O)cc2Cl)cc1	x	6%[46.1 µM]	u	-9%	0%	x	-17%	x
CC(NC(=O)c1ccco1)C(=O)N1CCCCC1 (configuration not stated)	x	x	x	9%	12%	7%	-20%	x
O=C(Oc1ccc(Cl)c2cccnc12)c1cccnc1	x	-27%	-21%	0%	-28%	-44%	u	x
Cc1ccc(C)c(N2CCN(c3ncnc4onc(C)c34)CC2)c1	27%	u	x	x	u	x	x	-0.9%
N#Cc1cccc(NC(=O)NCCc2c[nH]c3ccccc23)c1	-2%	8%	32%	-7%	u	-11%	-2%	-2.7%
CN(NC1OC(=O)c2ccccc21)c1ncc(C(F)(F)F)cc1Cl (configuration not stated)	x	x	x	-2%	0%	-7%	0%	x
CC1(OC(=O)CCc2ccccc2)C(=O)C=C2C=C(c3ccc(C#N)cc3)N(C3CCCCC3)C=C2C1=O (configuration not stated)	x	x	x	0%	-19%	0%	-9%	x
CCC(C)(C)NC(=O)C(c1ccco1)N(C(=O)c1csnn1)c1cccc(F)c1 (configuration not stated)	-10%	3%	3%	9%	5%	-6%	-7%	3.0%
SMILES	Cruzain noTriton	LASV entry inh	MARV entry inh	SARS PLP yeast	StopGo reporter	NS1 inh	RE007 growth inh	Cruzain Triton
Brc1ccc(-c2noc(COc3ccc4c(c3)CCC4)n2)o1	3%	x	x	-12%	11%	-25%	1%	-5.4%
CCOC(=O)N1CCN(C(=O)c2cn(CC)c3ccc(S(=O)(=O)N4CCOCC4)cc3c2=O)CC1	x	x	x	29%	0%	1%	8%	x
CN(C)c1ccc(C(=S)N2CCOCC2)cc1	0%	10%	u	2%	-11%	-16%	-13%	2.5%
COc1ccc(OCc2nnc(SCC(=O)NC3CC4CCC3C4)o2)cc1 (configuration not stated)	x	16%	23%	-1%	2%	-2%	23%	x
C=CCN(CC=C)Cc1c(C)[nH]c2c(C)c(C)ccc2c1=O	x	-8%	-11%[46.1 µM]	0%	-2%	8%	-5%	x
Cc1cc(C)nc(N/N=C/c2cccc([N+](=O)[O-])c2)n1	x	-4%[46.1 µM]	u	1%	2%	2%	-9%	x
COc1ccc(-n2c(Cc3cccn3C)nnc2SCC(=O)Nc2cccc(F)c2)cc1	16%	6%	-24%	3%	-6%	-17%	-11%	1.8%
CCOc1ncccc1C(=O)OCC(=O)NCc1ccc2c(c1)OCO2	x	15%	3%[14.2 µM]	0%	-9%	x	8%	x
CC(=O)Nc1ccc(OC(F)(F)Cl)cc1	x	x	x	-1%	8%	-2%	9%	x
CC(NC(=O)c1cccc(S(=O)(=O)N(C)C)c1)c1nc2ccccc2[nH]1 (configuration not stated)	x	u	12%	0%	-2%	x	0%	x
N=c1sccn1Cc1ccccc1F	x	-6%[46.1 µM]	-1%[46.1 µM]	1%	-2%	1%	1%	x
